# NPYLR7 ag – agonists of mosquito NPYLR7 receptor, primary screen, cell-based, Aedes aegypti, calcium fluorescence, mosquito biting behavior; Aedes aegypti neuropeptide Y-like receptor 7 (NPYLR7); HEK293T NPYLR7/Galpha15, GCaMP6s calcium fluorescence; activation, % at 10 µM; 0.15% of 270,000 active; in the data active means activation above about 40%;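 further: 0% = vehicle and 100% = reference agonist at the receptor; some compounds past the cut are filed as inactive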
# NPYLR7 ag max-min – further read-out of NPYLR7 ag, marked with its call; activation, %; measured here: Max-Min RFU normalised activation; some inactives read as strong as hits;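 span of the calcium signal over five minutes; 0% = vehicle and 100% = native peptide agonist; compound fluorescence can raise it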
# The depositor's hits bear a star; & = joins results of further samples.
structure,NPYLR7 ag,NPYLR7 ag max-min
Cc1cc(C)n(-c2cc(NCCNS(=O)(=O)c3cccs3)ncn2)n1,-1,-5
O=C(C1=C(O)C(=O)N(CCCN2CCOCC2)C1c1ccco1)c1ccco1 (stereo unspecified),13&-2,5&-3
CN(Cc1nc2ccccc2n1C)C(=O)[C@H]1Cc2ccccc2CN1,4,4
CCO[C@H]1COC[C@@H]1NC(=O)c1cccc2c1OCC2,2,1
CN(C)CCCOc1ccc(-c2nnc3ccc(-c4ccc(C(=O)N(C)C)cc4)cn23)cc1,6,-2
CCc1nc2ccc(C(=O)NCC3CCCCC3)cn2c1N(CC)CCOC,-5,-6
COc1ccc(C=CC(=O)N2CCCC2c2cc(OC)ccc2OC)c(OC)c1 (stereo unspecified),-6,-5
CC1CCc2c(C(=O)N(C)CC(=O)NC(C)(C)C)csc2C1 (stereo unspecified),7,8

# (more compounds)
structure,NPYLR7 ag,NPYLR7 ag max-min
COc1nc2ccccc2cc1-c1ccc(SCC(N)=O)cc1,2,0
CCNC(=O)Nc1ccc(N(C)C)c(CN(C(=O)c2cccc(F)c2)C(C)c2ccccc2)c1 (stereo unspecified),-8,5
CN(C)c1ccc(C=C2SC(=O)N(CC(=O)Nc3ccc(S(N)(=O)=O)cc3)C2=O)cc1,-8,-4
Cc1ccnc(NC(=O)CN(C)c2ccc(C#N)cc2F)c1,0,-1
CSc1ncc(CNC(C)CCc2ccccc2)c(N(C)C2CCCCC2)n1 (stereo unspecified),1,-3
O=C(Cc1cc2c(cc1Br)OCCO2)NCc1ccccc1,8,4
C=CCN(Cc1nc(-c2ccccc2)no1)C(=O)CC1=CCNCC1,0,-3
CN(Cc1ccc(C(=O)Nc2cccnc2)cc1)Cc1cc(C2CC2)n[nH]1,8,7

# Further compounds follow:
structure,NPYLR7 ag,NPYLR7 ag max-min
CCC(C)(C)N=C(NC#N)Nc1cccnc1,-3,-7
CC(C)n1cc(C2c3[nH]c4ccccc4c3CCN2Cc2ccc3c(c2)OCCO3)cn1 (stereo unspecified),3,2
CC(NC(=O)CCCn1nc(-c2ccc(F)cc2)ccc1=O)c1ccccc1 (stereo unspecified),-1,3
O=C(O)COc1ccc(S(=O)(=O)Nc2cccc(Cl)c2F)cc1,9,7
Cc1c(C)n2c3c(=O)n(Cc4ccc(F)cc4)c(=O)n(C)c3nc2n1CC1CCCO1 (stereo unspecified),-4,26
O=C(CCCc1ccccc1)NCCSc1ncc(-c2ccccc2)[nH]1,7,4
CCOC(=O)Cc1c(C)nc2cc(-c3ccc(Cl)cc3)[nH]n2c1=O,3,1
CC(C)(C)c1cc(NC(=O)c2cc(Cl)cc(Cl)c2)n(-c2ccc(Br)cc2)n1,7,2

# Next structures
structure,NPYLR7 ag,NPYLR7 ag max-min
COC(=O)c1sccc1NC(=O)C=Cc1cccs1,0,6
CCOC(=O)c1c(C)nn(-c2ccc(C(=O)NCc3cccnc3)cc2)c1C,-5,-8
CCOc1ccc(N2CCn3c2nnc(C(=O)NCCO)c3=O)cc1,3,1
Clc1ccc(CN2CCN(N=Cc3ccc(Br)s3)CC2)cc1,-6,-13
O=C(NCCn1ncc2c(=O)n(Cc3cccc(F)c3)cnc21)c1cc2ccccc2o1,-3,-8
COc1ccc(CC(=O)Nc2nnc(SCC(=O)Nc3nnc(C(C)C)s3)s2)cc1,6,7
Oc1ccccc1C1Nc2ccccc2-c2nc3ccccc3n21 (stereo unspecified),2&8,0&2
O=C(O)CN1C(=O)/C(=C\c2ccc(Cl)c(Cl)c2)SC1=S,-3,-9

# (more compounds)
structure,NPYLR7 ag,NPYLR7 ag max-min
Cc1cc(=O)[nH]cc1NC(=O)COc1cc(Cl)ccc1Cl,-16,-19
COc1ccc(C2=NC(=Cc3cccnc3)C(=O)O2)cc1OC,4,6
COC(=O)c1ccc(CNC(=O)c2ccc3nc(C4CC4)oc3c2)cc1,3,4
CC(=O)Oc1ccc2c(=O)oc(COc3ccc(C)c(C)c3)nc2c1,-7,-13
O=C(Cn1nc2c(c1NC(=O)Cc1cccs1)CSC2)NCc1ccc(F)cc1,-4,-2
CCn1c(SCCn2c([N+](=O)[O-])cnc2C)nc2c1c(=O)n(C)c(=O)n2C,1,10
COc1ccc(F)cc1CN(Cc1cccnc1)C1CCN(C)CC1,0,-3
COc1ccc(C(=O)OCCN(C2=NS(=O)(=O)c3ccccc32)c2ccccc2OC)cc1OC,1,-1

# Additional results.
structure,NPYLR7 ag,NPYLR7 ag max-min
Cc1ccc([N+](=O)[O-])cc1S(=O)(=O)Nc1nc2ccccc2nc1Nc1ccccc1,-1,-7
Cc1cccnc1NC(=O)C1CC(c2c(F)cccc2F)=NO1 (stereo unspecified),0,-3
CCOC(=O)c1c(C)[nH]c(C(=O)N2[C@@H]3CC[C@H]2CNC(=O)C3)c1C,17,0
CC1Cc2ccccc2N1C(=O)NCC1CC(=O)Nc2ccccc21 (stereo unspecified),2,43
CCCCc1nc2cc(C(=O)NC(c3ccncc3)c3ccccc3C)ccc2o1 (stereo unspecified),15,4
CCc1nccn1CCC(=O)N1CCNCC1C(=O)N1CCCC1 (stereo unspecified),1,-4
Cn1ccc(=N/N=C2/C=C(C(=O)Nc3ccccc3)C(=O)c3ccccc32)cc1,0,7
CC(C)CCOP(=O)(c1ccc(N(C)C)cc1)C(O)c1ccc(Br)cc1 (stereo unspecified),4,10

# The final 6 entries of the section above lead into the next:
structure,NPYLR7 ag,NPYLR7 ag max-min
CCOC(=O)c1c(C)[nH]c(C(=O)N2[C@@H]3CC[C@H]2CNC(=O)C3)c1C,17,0
CC1Cc2ccccc2N1C(=O)NCC1CC(=O)Nc2ccccc21 (stereo unspecified),2,43
CCCCc1nc2cc(C(=O)NC(c3ccncc3)c3ccccc3C)ccc2o1 (stereo unspecified),15,4
CCc1nccn1CCC(=O)N1CCNCC1C(=O)N1CCCC1 (stereo unspecified),1,-4
Cn1ccc(=N/N=C2/C=C(C(=O)Nc3ccccc3)C(=O)c3ccccc32)cc1,0,7
CC(C)CCOP(=O)(c1ccc(N(C)C)cc1)C(O)c1ccc(Br)cc1 (stereo unspecified),4,10
CCc1c(C)nc2c(-c3ccc(Cl)cc3)c(C)[nH]n2c1=O,-2,-3
COC(=O)CCn1cc(CN2CCCC2c2ccccn2)cn1 (stereo unspecified),24,10
Cc1cc(C)c2c(c1)C(=NNS(=O)(=O)c1ccc(Br)cc1)CCC2,1,0
NC(=O)c1ccc(NC(=O)c2csc3c2CCC(c2ccccc2)C3)cc1 (stereo unspecified),2,-1
CCN1C(=O)NC(c2ccccc2I)C(C(=O)OCCOC)=C1C (stereo unspecified),-2,-4
CCOC(=O)C1C(=N)OC2=C(C(=O)CCC2)C1c1ccco1 (stereo unspecified),-11,-20
Cc1nn2c(NC(C)C)c3c(nc2c1-c1ccccc1)CCCC3,3,7
CCN(CC)P1(=Nc2ccc(C)cc2C)C(=C2N(C)c3ccccc3C2(C)C)C=NN1C (stereo unspecified),0,3

# Later entries
structure,NPYLR7 ag,NPYLR7 ag max-min
CCCC(O)CN(Cc1ccccc1)Cc1ccccc1 (stereo unspecified),25,33
C=CCc1c(O)nc(SCC(=O)N2CCOCC2)[nH]c1=O,17,5
CCCS(=O)(=O)C(C)C(=O)N1CCCC(c2cc(C)[nH]n2)C1 (stereo unspecified),4,0
COc1ccccc1-n1c(CSCC(=O)Nc2ccc3ccccc3c2)nc2ccccc2c1=O,-2,-1
O=C(c1cccs1)C1CCCN(Cc2nc(CCc3ccccc3)no2)C1 (stereo unspecified),5,3
Cc1cc(I)ccc1N1C(=O)C2C3C=CC(CC3)C2C1=O (stereo unspecified),-12,-20
CN(C)CCCn1c2c(c(SCC(=O)Nc3ccc([N+](=O)[O-])cc3)nc1=O)CCCC2,-1,3
COc1ccc(C(C2Sc3nc(C)nn3C2=O)N2CCN(C(C)=O)CC2)c(OC)c1 (stereo unspecified),-7,-10

# Grouped by structure, the compounds so far containing two or more sulfur atoms (six)
structure,NPYLR7 ag,NPYLR7 ag max-min
Cc1cc(C)n(-c2cc(NCCNS(=O)(=O)c3cccs3)ncn2)n1,-1,-5
CN(C)c1ccc(C=C2SC(=O)N(CC(=O)Nc3ccc(S(N)(=O)=O)cc3)C2=O)cc1,-8,-4
COC(=O)c1sccc1NC(=O)C=Cc1cccs1,0,6
COc1ccc(CC(=O)Nc2nnc(SCC(=O)Nc3nnc(C(C)C)s3)s2)cc1,6,7
O=C(O)CN1C(=O)/C(=C\c2ccc(Cl)c(Cl)c2)SC1=S,-3,-9
O=C(Cn1nc2c(c1NC(=O)Cc1cccs1)CSC2)NCc1ccc(F)cc1,-4,-2

# Next results follow:
structure,NPYLR7 ag,NPYLR7 ag max-min
O=C1NC(=S)N/C1=C\c1ccc(Br)cc1,-1,-9
O=C(NCc1cccnc1)c1sc2ccccc2c1Cl,2,-2
C=CCNC(=O)C(NC(=O)c1cccs1)C1CCN(S(=O)(=O)c2ccc(Cl)cc2)CC1 (stereo unspecified),4,8
Cc1ccccc1NC(=O)CCn1nnnc1-c1ccccn1,3,12
O=C(O)c1cc(NS(=O)(=O)c2ccc3c(c2)CCO3)ccc1Cl,9,6
Cc1ccccc1C(=O)N1C(C(=O)N2CCCC2)COC12CCN(C(=O)c1cccs1)CC2 (stereo unspecified),1,16
O=C(c1cc(F)ccc1F)C1CCCN(C(=O)CCOc2ccccc2)C1 (stereo unspecified),11,6
COc1ncccc1CNC(=O)CCC1CCCO1 (stereo unspecified),1,-3

# Next section
structure,NPYLR7 ag,NPYLR7 ag max-min
CC(NS(=O)(=O)c1ccc(F)cc1)c1nnc(SCc2ccccc2)n1-c1ccc([N+](=O)[O-])cc1 (stereo unspecified),-1,-1
Cc1ccc(Nc2nc(NCc3ccco3)nc3nccnc23)cc1C,7,14
Cn1nnc(-c2ccc(N)c(N)c2)n1,-5,-10
O=C1CSC(c2ccc(Cl)cc2)N1c1ccc(O)cc1 (stereo unspecified),-6,-7
CCCc1c(C(=O)N2CCCCC2)cnn1-c1cccc(Cl)c1,-1,-1
O=C(Cn1cnc([N+](=O)[O-])n1)N/N=C\c1cc(Cl)cc([N+](=O)[O-])c1O,-8,-11
CC(NC(=O)C1CCN(S(=O)(=O)c2cc(C(N)=O)n(C)c2)CC1)c1ccc(F)cc1 (stereo unspecified),1,3
CN(Cc1n[nH]c2c1CCCC2)c1cc(N2CCOCC2)nc(N)n1,0,5

# (further entries)
structure,NPYLR7 ag,NPYLR7 ag max-min
Cn1c(=O)[nH]c(=O)c2c1nc(NCCCn1ccnc1)n2CCCc1ccccc1,-1,-5
COc1ccc(CN(CC(O)Cc2ccccc2)CC2CCCO2)cc1OC (stereo unspecified),16,24
O=c1oc2ccccc2c(N2CCCC2)c1CN1CCCC1,-3,-6
CNS(=O)(=O)c1ccc(CNC(=O)CCc2cccc(Cl)c2Cl)s1,9,6
Fc1cccc(CNCC2CC(c3ccc(Cl)c(Cl)c3)=NO2)c1 (stereo unspecified),3,-2
COc1ccc2c(c1)C(COCc1ccc(C(=O)O)cc1)=CC(C)(C)CO2,4,11
COc1ccccc1NC(=O)C1=C(C)NC(=O)NC1c1ccc(N(C)C)cc1 (stereo unspecified),-1,-3
C#CCOCC(O)CN(CCN1CCOCC1)Cc1ccc(OC)c(OC)c1 (stereo unspecified),31,26

# Later entries:
structure,NPYLR7 ag,NPYLR7 ag max-min
COCCN(Cc1ccc(OS(C)(=O)=O)cc1)C(=O)NCc1ccccc1,10,16
Cc1cccc(-c2nnc(NC(=O)C(NC(=O)C34CC5CC(CC(C5)C3)C4)C(C)C)s2)c1 (stereo unspecified),23,25
CCN(Cc1ccsc1)CC1CCCN(CCc2cccc(OC)c2)C1 (stereo unspecified),7,4
CCC/C=C/c1cc(C)cnc1-n1cnnc1,0,-2
O=c1nc(SCc2cccc(F)c2)nc2ccccn12,1,3
O=C(Cc1ccc([N+](=O)[O-])cc1)N1N=C2CCCCC2C1(O)C(F)(F)F (stereo unspecified),-12,-16
CCOC(=O)C1CCN(C(C)c2nc3sc4c(c3c(=O)[nH]2)CCC(C)C4)CC1 (stereo unspecified),3,6
Cc1ccc(-c2nc3ccc(C)cn3c2NC(C)(C)C)cc1,-6,-1

# Other records follow.
structure,NPYLR7 ag,NPYLR7 ag max-min
Cc1nnc(-c2cccc(NC(=O)C3CCN(C(=O)c4cc(C)n(C)n4)CC3)c2)s1,5,0
COc1ccc(CC(=O)Nc2nnc(-c3cc(C)nn3C)o2)cc1,-3,-4
O=C(OCc1cc(-c2ccccc2F)on1)c1ccco1,-1,-3
S=c1[nH]nc(C2COc3ccccc3O2)n1-c1ccccc1 (stereo unspecified),1,2
O=C(NCC1CCCN(C(=O)CC2=CCCCC2)C1)c1ccc(-c2ccccc2)cc1 (stereo unspecified),8,3
O=C(Cn1c(-c2cccnc2)nc2ccccc21)Nc1nccs1,-9,-15
O=C(CSCc1ccccc1Cl)N1CC[C@H](O)[C@@H](O)C1,0,-1
COC(=O)c1ccc(C(=O)OC)c(NC(=O)COc2ccc3oc4c(c3c2)CCCC4)c1,-1,-4

# Remaining list, next part
structure,NPYLR7 ag,NPYLR7 ag max-min
CC(C)(C(=O)N1CCC1(C)C(=O)Nc1cccc2ccccc12)c1ccccc1 (stereo unspecified),-4,-4
CC(Sc1n[nH]c(CCC2CCCC2)n1)c1nc(N)nc(N(C)C)n1 (stereo unspecified),1,-3
CCCCC1CCC(c2ccc(-c3nc(-c4ccc([N+](=O)[O-])cc4)no3)cc2)CC1 (stereo unspecified),1,5
C=CCn1c(=O)c2c(nc3n(-c4ccccc4)c(C)c(C)n23)n(C)c1=O,12,8
CC(c1ccccc1)N(Cc1ccco1)Cc1nc(C(=O)NCc2ccc(F)cc2)co1 (stereo unspecified),14,28
CC(C)CCn1c(CN2CCC(C)CC2)nc2c1c(=O)n(C)c(=O)n2C,14,8
CC(C)(C)S(=O)CCNC(=O)c1ccc(Cl)cc1 (stereo unspecified),1,-2
CC(C)c1n[nH]c2c1CN(C(=O)C1CCC(=O)N(C3CCCC3)C1)CC2 (stereo unspecified),-1,-5
O=C(NCc1ccccc1)c1nn(CCO)c2c1CN(C1CCSC1)CC2 (stereo unspecified),20,7

# Bioassay records (PubChem)

# Some of the compounds tested. The share of hits here may be higher or lower than overall.
